NPYLR7 agonist – agonists of mosquito NPYLR7 receptor, primary screen, cell-based, Aedes aegypti, calcium fluorescence, mosquito biting behavior; Aedes aegypti neuropeptide Y-like receptor 7 (NPYLR7); HEK293T NPYLR7/Galpha15, GCaMP6s calcium fluorescence; activation, % at 10 µM; 270,000 compounds, 0.15% hits; in the data active means activation above about 40%;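 further: 0% = vehicle and 100% = reference agonist at the receptor; some compounds past the cut are filed as inactive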
NPYLR7 agonist max-min – second read-out of NPYLR7 agonist, no call of its own (marks repeat the call); activation, %; measured here: Max-Min RFU normalised activation; some inactives read as strong as hits;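 span of the calcium signal over five minutes; 0% = vehicle and 100% = native peptide agonist; compound fluorescence can raise it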
Numbers without * were called inactive; & = joins results of further samples.

SMILES	NPYLR7 agonist	NPYLR7 agonist max-min
O=C(Nc1ccc(F)c(Cl)c1)c1cc(=O)c(OCc2ccc(F)cc2)c[nH]1	5	3
N#CC1C(=O)NC(N2CCCCC2)=NC12CCCCC2 (stereo unspecified)	7	1
COc1ccc(CCC(=O)N2CCCC2CN2CC(C)OC(C)C2)cc1F (stereo unspecified)	1	-3
CN1CC(=O)N2CCN(Cc3ccc(Oc4ncccn4)cc3)CC2C1=O (stereo unspecified)	-5	-5
CC(C)C1CN(C(=O)c2cccc(-c3cn[nH]c3)c2)CCC(=O)N1CC1CC1 (stereo unspecified)	1	-22
CC(=O)c1ccc(NCc2ncc(C(C)(C)C)o2)cc1	-2	-5
COc1cc2ncnc(-n3nc(-c4ccccn4)nc3N)c2cc1OC	0	-8
O=C1CC(c2ccncc2Cl)c2ccc(N3CCNC3=O)cc2N1 (stereo unspecified)	-2	-2
COCCCNc1cccc2c1C(=O)c1c(NCCCOC)cccc1C2=O	5	-2
COCCCN(CC(=O)N(Cc1ccccc1)Cc1cccn1Cc1cccc(OC)c1)C(=O)c1ccc(OC)cc1	-4	-3
CCn1c(C2CC(=O)N(c3cccc4ccccc34)C2)nc2ccccc21 (stereo unspecified)	-3	3
CN(CCCN1C(=O)c2c(F)ccc(F)c2C1=O)c1ccccc1	-8	-15
OCC1(CCc2ccccc2)CCCN(c2cnc3ccccc3n2)C1 (stereo unspecified)	0	-2
COCCCNC(=O)Cc1csc(NC(=O)CN(C(=O)c2ccc(Cl)cc2)C(C)C)n1	13	16
O=C(CSc1ccc2nnc(-c3ccncc3)n2n1)Nc1cccc(C(F)(F)F)c1	-4	-3
Cc1nnc2n1Nc1nc3ccccc3nc1S2	4	-1
CC1(c2ccccc2F)NC(=O)N(Cc2noc(-c3ccsc3)n2)C1=O (stereo unspecified)	-2	-3
COc1ccc(-c2nc3sc(CCNS(=O)(=O)c4ccc(OC)c(C)c4)c(C)n3n2)cc1	0	-2
O=C1NCCN(C(=O)c2ccc(Cn3cnnn3)cc2)C1c1cccc(F)c1 (stereo unspecified)	-1	-2
COc1ccccc1Oc1cc(C(F)(F)F)nc(SCc2ccc(F)c(F)c2)n1	3	5
CN1CC2(CCCN(Cc3ccc(S(C)(=O)=O)cc3)C2)OC1=O (stereo unspecified)	5	2
O=C(CCc1ccccc1F)Nc1ccc(C(=O)Nc2cccnc2)cc1	-3	-6
CCCc1nnc(-c2cc3ccccc3n2CC(=O)NCc2ccc(F)cc2)o1	-3	-2
O=C1CC(N2CCSCC2)C(=O)N1c1ccc(F)cc1 (stereo unspecified)	-1	-2
O=C(CC1=CCCCC1)NC1CCCN(CCCc2ccccc2)C1 (stereo unspecified)	0	-1

Compounds listed so far that have an NH in an aromatic ring (2):
SMILES	NPYLR7 agonist	NPYLR7 agonist max-min
O=C(Nc1ccc(F)c(Cl)c1)c1cc(=O)c(OCc2ccc(F)cc2)c[nH]1	5	3
CC(C)C1CN(C(=O)c2cccc(-c3cn[nH]c3)c2)CCC(=O)N1CC1CC1 (stereo unspecified)	1	-22

More entries:
SMILES	NPYLR7 agonist	NPYLR7 agonist max-min
CS(=O)(=O)c1cc(C(=O)OC2CCCCC2)ccc1Cl	2	-1
CCN1CCN(C(=O)c2ccc(CSc3nnc(-c4ccc(C)cc4)n3-c3ccccc3OC)cc2)CC1	13	18
CC1CCN(c2ccc(NC(=O)/C=C/c3ccccc3)cc2C(=O)NCc2ccc(F)cc2)CC1	-5	5
O=C(CN1C[C@H]2C[C@H](O)[C@@H](O)C[C@H]2C1)NCCc1ccc(F)cc1	0	2
c1ccc2oc(-c3n[nH]c(C4CC4)n3)cc2c1	2	20
CCOC(=O)c1cc(-c2cccc(OC)c2)n(-c2ccc(C(=O)NCC3CCCO3)cc2)n1 (stereo unspecified)	5	13
c1ccc(-c2cc(Sc3nc4ccccc4s3)nc3ccccc23)cc1	0	-2
N#Cc1c[nH]c(C(=O)NC2CCN(c3cccc(Cl)c3)C2)c1 (stereo unspecified)	6	8
O=C(C1CCN(C(=O)[C@@H]2CCCN2C(=O)C2CCN(c3nccc(C(F)(F)F)n3)CC2)CC1)N1CCCCC1	21	10
O=C1NCCN(Cc2ccoc2)C1CC(=O)N1CCN(c2cccc(C(F)(F)F)c2)CC1 (stereo unspecified)	16	5
Cc1cc(N2CC(C)OC(C)C2)nc2ccccc12 (stereo unspecified)	1	0
COCC(=O)N(Cc1ccccc1OS(=O)(=O)c1ccc(F)cc1)C(C)C	-3	2
CN1N=C(C(=O)N(CCN2CCCCC2)CC2CCCN(C3CCCC3)C2)CCC1=O (stereo unspecified)	3&0	3&-1
COc1ccc(C(=O)N(Cc2c(-c3ccc(F)cc3)noc2N2CCN(C)CC2)CC2CCCO2)cc1 (stereo unspecified)	9	8
CCOc1cc(-c2nn(CN3CCOCC3)c(=S)o2)cc(OCC)c1OCC	3	2
Cc1nnc2c(C(=O)NC3CCCCC3)cccn12	5	6
COc1cccc(CSc2nnc(CNC(=O)c3ccc([N+](=O)[O-])cc3)n2-c2cc(Cl)ccc2C)c1	8	9
Cc1c(C)n2c3c(=O)n(CCCc4ccccc4)c(=O)n(C)c3nc2n1CC1CCCO1 (stereo unspecified)	1	7
Cc1nc2c(c(=O)n1C)CN(C(=O)c1ccccc1C1CCNC1)C2 (stereo unspecified)	5	3
Cc1cc(C(=O)N2CCC2(C)C(=O)NC(C)C)nn1C (stereo unspecified)	1	1
COC(=O)c1c([N+](=O)[O-])cnn1C	2	7
O=C(O)c1csc(S(=O)(=O)N2CCCc3cccc(OC(F)F)c32)c1	8	6
O=C(NCc1ccco1)C1COC2(CCCCC2)N1C(=O)c1cccc(Cl)c1 (stereo unspecified)	-5	-3
Cc1ccc(N(C)C(=O)CCCOc2ccccc2Cl)cc1	6	4
CC(=O)Nc1ccc(F)c(NC(=O)c2ccc(S(=O)(=O)C(C)C)cc2)c1	13	7

Reprinted at random: four records from the list
SMILES	NPYLR7 agonist	NPYLR7 agonist max-min
Cc1nnc2c(C(=O)NC3CCCCC3)cccn12	5	6
COCC(=O)N(Cc1ccccc1OS(=O)(=O)c1ccc(F)cc1)C(C)C	-3	2
O=C(O)c1csc(S(=O)(=O)N2CCCc3cccc(OC(F)F)c32)c1	8	6
c1ccc2oc(-c3n[nH]c(C4CC4)n3)cc2c1	2	20

The main list resumes, repeating the 3 entries before the break.
SMILES	NPYLR7 agonist	NPYLR7 agonist max-min
O=C(NCc1ccco1)C1COC2(CCCCC2)N1C(=O)c1cccc(Cl)c1 (stereo unspecified)	-5	-3
Cc1ccc(N(C)C(=O)CCCOc2ccccc2Cl)cc1	6	4
CC(=O)Nc1ccc(F)c(NC(=O)c2ccc(S(=O)(=O)C(C)C)cc2)c1	13	7
COc1c[nH]c(CN2CCCCC2CCN2CCOCC2)cc1=O (stereo unspecified)	-2	-4
Cc1cc(C)cc(NC(=O)Cn2nc(C)c3cnn(-c4ccc(F)cc4)c3c2=O)c1	6	3
Cc1cc2c(cc1C)NC(CC(=O)NC1CCCCC1)C(=O)N2 (stereo unspecified)	-9	-13
CN(CCc1ccccn1)Cc1nnc(CC2CCNCC2)n1C	13	10
Cc1cc(C)n(NC(=O)c2cc(-c3ccc(F)cc3)nc3ccccc23)c(=O)c1C#N	-2	-2
Cc1c(C(=O)NCc2ccccc2C(F)(F)F)sc(=O)n1Cc1ccccc1	-8	-4
Cc1nc(-c2cccc(C(F)(F)F)c2)nc(N2CCN(C(=O)c3cccc(Br)c3)CC2)c1Cc1ccccc1	-4	7
CC(NC(=O)c1cc2n(n1)CCCN(C)C2)c1cn2ccsc2n1 (stereo unspecified)	2	-8
COCCN(Cc1cc(Cl)ccc1OS(C)(=O)=O)C(=O)CC(C)C	-4	0
Cc1cc(NCCCN(C)C)n2ncc(-c3ccccc3)c2n1	-3	-6
COc1ccc(-c2nnc3ccc(SCC(=O)Nc4ccc(C)cc4)nn23)cc1	16	16
CN(C)c1nc2c(c(=O)[nH]1)CCN(C(=O)C1[C@@H]3[C@H]4CC[C@H](C4)[C@H]13)CC2 (stereo partly specified)	3	2
CCCCNc1nc2c(-c3ccc(F)cc3)nnn2c2ccccc12	0	-6
O=C1C[C@H]2CC[C@@H](CN1)N2Cc1ccc(OCc2ccccn2)cc1	-5	-1
CC1=NC2=C(C(=O)CCC2)C(c2ccc(O)cc2)C1C#N (stereo unspecified)	17	11
O=C(CSCc1ccccc1Cl)NCc1ccccc1	-1	4
CC1=C(C(=O)N(CC2CCN(C3Cc4ccccc4C3)CC2)CC2CCCO2)OCCO1 (stereo unspecified)	2	-2
Cc1ccc(NC(=O)N2CCC(C(NC(=O)c3ccccc3C)C(=O)N3CCCC3)CC2)cc1 (stereo unspecified)	17	17
Cc1cccc(-c2cn(C(Cn3ccnc3)C(C)(C)C)nn2)n1 (stereo unspecified)	9	2
CCc1nnsc1C(=O)Nc1ccc(N2CCCC2=O)cc1	11	9
Cn1ncc(Oc2ccc(F)cc2)c(Nc2ccc(C(=O)NCCc3ccccn3)cc2)c1=O	-9	1
CCc1nc2ccc(C(=O)Nc3cccc(NS(C)(=O)=O)c3)cn2c1N(C)Cc1ccc(Cl)cc1	8	14
COC(=O)Cn1c(=O)c2c(nc3n2CCCN3c2ccc(C)c(Cl)c2)n(C)c1=O	1	-2
COC(=O)N1CCC(NC(=O)c2cc3cccc(Cl)c3o2)C1 (stereo unspecified)	-21	-24
CCc1c(C)nc(-n2nc(C)cc2C)n(CC(=O)Nc2ccc(Br)cc2)c1=O	1	-1

Some values from the entries so far:
O=C(CSCc1ccccc1Cl)NCc1ccccc1 | NPYLR7 agonist: -1
OCC1(CCc2ccccc2)CCCN(c2cnc3ccccc3n2)C1 (stereo unspecified) | NPYLR7 agonist max-min: -2
CN(CCc1ccccn1)Cc1nnc(CC2CCNCC2)n1C | NPYLR7 agonist: 13
Cc1nc(-c2cccc(C(F)(F)F)c2)nc(N2CCN(C(=O)c3cccc(Br)c3)CC2)c1Cc1ccccc1 | NPYLR7 agonist: -4
COc1ccc(-c2nc3sc(CCNS(=O)(=O)c4ccc(OC)c(C)c4)c(C)n3n2)cc1 | NPYLR7 agonist: 0
Cc1cccc(-c2cn(C(Cn3ccnc3)C(C)(C)C)nn2)n1 (stereo unspecified) | NPYLR7 agonist: 9
COc1c[nH]c(CN2CCCCC2CCN2CCOCC2)cc1=O (stereo unspecified) | NPYLR7 agonist: -2

The list continues:
SMILES	NPYLR7 agonist	NPYLR7 agonist max-min
COc1cccc(CNC(=O)C2CCN(C(=O)[C@@H](Cc3ccccc3)NC(=O)Nc3c(Cl)cccc3C(F)(F)F)CC2)c1	7	11
O=c1c(N=Nc2ccc(O)cc2)c(-c2ccccc2)[nH]n1-c1ccc([N+](=O)[O-])cc1	20	5
CCCCCc1ccc(C(=O)Nc2ccc(N3CCC(C)CC3)c(C(=O)NCCN(CC)CC)c2)cc1	-4	5
Cc1cc(C(=O)NCc2cccnc2N2CCCC(O)C2)nn1C (stereo unspecified)	6	1
CC(C)C(NC1CCCCC1C)C(=O)NC(N)=O (stereo unspecified)	-6	-7
O=C(c1ccc(Br)cc1)N(Cc1ccco1)C1CCS(=O)(=O)C1 (stereo unspecified)	9	2
CCn1c(CC2CCN(Cc3cnc(OC)nc3)CC2)n[nH]c1=O	3	1
Cc1ccc(-c2nc(C=Nc3cccnc3Cl)c(O)o2)cc1	-4	-11
CCCC(=O)N1CCC1(C)C(=O)Nc1ccc2scnc2c1 (stereo unspecified)	6	2
CC(C)CN(Cc1cccn1Cc1ccccc1Cl)C(=O)CN(C(=O)C1CC1)C(C)C	-16	-9
CCOc1ccc(-c2nc(N3CCC(Cc4ccccc4)CC3)c3ccccc3n2)cc1	5	8
COc1cc(C(=O)Oc2cccc3cccnc23)cc(OC)c1OC	-10	-13
O=C(OCC1CC2CCC1C2)C(c1ccccc1)n1cccn1 (stereo unspecified)	0	-1
COC(=O)C1=C(C)N(C)C(C)=C(C(=O)OC)C1c1ccc(C)c([N+](=O)[O-])c1	-8	-10
Cc1nc(-c2ccccc2)ncc1C(=O)NCC1(O)CCCNCC1 (stereo unspecified)	16	13
Cc1nccc(N2CCC3(CC2)c2ccccc2[C@@H](N)[C@@H]3O)n1	22	17
CC(NC(=O)c1cccc(Cl)c1Cl)C(=O)OCc1cccc(C(N)=O)c1 (stereo unspecified)	3	7
NC(=O)CN(C(=O)C1CC(=O)N(Cc2ccccc2)C1)C1CCCC1 (stereo unspecified)	1	-16
N#CC(OC(=O)Cc1ccc(NC(=O)c2ccc(Br)o2)cc1)C1CC1 (stereo unspecified)	-1	-3
CCN(Cc1cccc(F)c1)C(=O)Cn1cnc2ccccc2c1=O	2	0
COc1ccc(CC(CC(=O)N2CCC3(CC2)CC(=O)c2cc(F)ccc2O3)C(=O)N2CCC3(CC2)CC(=O)c2cc(F)ccc2O3)cc1 (stereo unspecified)	-12	-16
O=C(Nc1ccc(N2CCc3ccccc3C2)c(C(=O)NCc2cccnc2)c1)c1cc(Cl)cc(Cl)c1	0	14
CCNCC#CCOc1ccc(C)c(C)c1	-4	-5
CC(NC(=O)c1cn(-c2ccccc2)nn1)c1cn2ncsc2n1 (stereo unspecified)	13	10
CCCCCNC(=O)c1ccc(CSc2nc(Cl)cc(N3CCN(c4ccc(Cl)cc4)CC3)n2)cc1	1	13
C=CCNC(=O)OC1CN(CC(C)C)C(=O)CN(C(=O)c2cccs2)C1 (stereo unspecified)	1	7
CCCN(C(=O)c1cccc(OC)c1)C(C)c1nc2ccccc2c(=O)n1-c1ccccc1OCC (stereo unspecified)	22	26

These rows are one share of the data, so the mix of outcomes need not match the whole.
